Mtb growth – Confirmatory growth inhibition assay against Mycobacterium tuberculosis H37Rv, potency (AID 1949); most inactive calls were filed without a number and no value below 0 was filed; one-dose inhibition, % at 10 µg/mL; IC50 in µg/mL for titrated hits; hit rate 1.6% among 100,000;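 active means confirmed in a dose series; inconclusive means about 50% or more but not retested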;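 further: bacteria grown 7 days with compound before Alamar blue readout; 0% = untreated bacteria and 100% = reference antibiotic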
* hit, by the source's call; i = inactive; u = inconclusive. Some of the compounds tested; the hit share may differ from the screen's.

entry | Molecule | Mtb growth
1 | Cc1ccc(S(=O)(=O)N2CCN(c3ccc(C(=O)c4ccccc4)cc3F)CC2)cc1 | 2%
2 | CCOc1ccccc1NC(=O)c1c(NC(=O)C(F)(F)F)sc2c1CCCCC2 | 0%
3 | O=C(c1cc2cc(Cl)cc(Cl)c2oc1=O)N1CCCCC1 | 15%
4 | C=CCn1c(CCCOc2ccc(Cl)cc2Cl)n[nH]c1=S | 3%
5 | Cc1cc(NC(=O)Cc2ccc(Cl)cc2)no1 | i
6 | O=C(CCC(=O)OCc1cccc(Cl)c1)Nc1cccc2ccccc12 | i
7 | CCCOc1ccc(NC(=O)Nc2ccccc2Cl)cc1 | i
8 | COc1ccc2c(=O)c(Oc3ccccc3)c(C)oc2c1OC | i
9 | NC(=O)C1(N2CCCCC2)CCN(C2CC(=O)N(Cc3ccc(N4CCCC4=O)cc3)C2=O)CC1 (stereo not drawn) | i
10 | CCOc1ccc(-n2c(-c3ccc(Cl)cc3Cl)n[nH]c2=S)cc1 | i
11 | CCn1c(CNC(=O)Cc2ccc(OC)cc2)nnc1SCC(=O)Nc1cc(F)ccc1C | i
12 | CCN(CC)c1ccc(NC(=O)c2ccccc2OC)cc1C | 22%
13 | O=C1C2C3C=CC(CC3)C2C(=O)N1Cc1ccc(Br)cc1 (stereo not drawn) | i
14 | Cc1ccc(C(=O)NCc2ccccc2)cc1I | 4%
15 | CCC(C)N1CCN(Cc2ccc(F)cc2)CC1 (stereo not drawn) | i
16 | CC(C)(C)SCCNc1c([N+](=O)[O-])c(=O)oc2ccccc12 | i
17 | CN(C1CCCCC1)S(=O)(=O)c1ccccc1 | 4%
18 | CC(C)c1ccc(OCc2ccc(C(=O)O)cc2)cc1 | i
19 | OC(COc1ccc(Br)cc1)CN1CCCC1 (stereo not drawn) | i
20 | COc1ccc2c(c1)c(CC(=O)OCc1ccccn1)c(C)n2C(=O)c1ccc(Cl)cc1 | i
21 | COc1cccc(CN2CCN(C(=O)Nc3ccc(Cl)c(Cl)c3)CC2)c1 | 5.1µg/mL*
22 | CCOC(=O)c1cc2cccc(OC)c2o1 | u
23 | Cc1cccc(OCCCC(=O)NCC2CCCO2)c1C (stereo not drawn) | i
24 | CCOC(=O)Cc1csc(CC(N)=O)n1 | i
25 | Nc1ccc(CCC(=O)N2CCCC2)cc1 | i
26 | CCOC(=O)Cc1csc(NC(=O)COc2ccc(C)cc2C)n1 | i
27 | COC(=O)c1cc(NC(=O)CCC(=O)O)cc(C(=O)OC)c1 | 4%
28 | COc1ccc(OC)c(NC(=O)COc2cccc(C)c2C)c1 | 22%
29 | CC(=O)Nc1ccc(Nc2ncnc3c2cnn3Cc2ccc(Cl)cc2)cc1 | 8%
30 | CCCC1=C(C(=O)OCC)C(c2cc(OC)c(OC3CCCC3)cc2Cl)NC(=O)N1 (stereo not drawn) | i
31 | COc1ccc(-c2csc3ncnc(SCc4c(C)noc4C)c23)cc1 | i
32 | COc1ccc(NC(=S)Nc2cccc(F)c2)cc1 | i
33 | COc1ccc(CNC(=O)c2cccc(NC(=O)C(C)C)c2)cc1 | 5%
34 | COc1ccc2c(c1OC)C(=O)N(c1ncn[nH]1)C2 | i
35 | O=Cc1ccc(-c2ccccc2[N+](=O)[O-])o1 | 2%
36 | Cc1cc(C)c(OCCCOc2ncnc3ccccc23)c(Cl)c1 | i
37 | O=C(CC1c2ccccc2Oc2ccccc21)N1CCN(c2ccccn2)CC1 | 2%
38 | Cc1ncc2ccccn12 | i
39 | CC(C)(C)SCCNC(=O)CN(c1ccccc1)S(=O)(=O)c1ccc(F)cc1 | i
40 | COc1ccc(NC(=O)CSCc2cccc(Br)c2)cc1 | i
41 | CCOC(=O)c1cnc2c(C(F)(F)F)cccc2c1NCCO | i
42 | CCOC(=O)C1CCN(C(=O)CN(Cc2ccccc2)S(=O)(=O)c2ccc(F)cc2)CC1 | i
43 | COc1c(C)cc(Br)cc1C(=O)Nc1ccc(-c2cc3ccccc3oc2=O)cc1 | 10%
44 | Cc1nn(S(=O)(=O)c2cccs2)c(C)c1Sc1ccccc1 | i
45 | Cc1ccc2oc(-c3cc(N)cc(C)c3O)nc2c1 | 2%
46 | COc1ccc(Cl)cc1NC(=O)Nn1cnnc1 | i
47 | Cc1cc(C)c(S(=O)(=O)Nc2ccc(S(=O)(=O)Nc3cc(Cl)ccc3C)cc2)c(C)c1 | i
48 | N#CCc1ccc(NC(=O)Cc2ccc(Cl)cc2)cc1 | i
49 | CCOC(=O)c1c(-c2ccccc2)csc1NC(=O)C(C)Oc1ccccc1 (stereo not drawn) | 1%
50 | Cc1ccc(-c2cc(C(=O)NC3CC3)c3ccccc3n2)cc1 | i
51 | Cc1ccn2c(NC(=O)c3ccccc3)c(-c3cccs3)nc2c1 | i
52 | CCc1ccccc1N(CC(N)=O)S(=O)(=O)c1ccccc1 | i
53 | O=C(Cc1cccs1)Nc1ccc(Br)cc1Cl | i
54 | Cc1ccc(-c2cc(C(=O)Nc3ccc(S(=O)(=O)Nc4ncccn4)cc3)c3ccccc3n2)cc1 | i
55 | Oc1ccc(-c2n[nH]c(C(F)(F)F)c2-c2ccccc2Cl)c(O)c1 | 2%
56 | CC(C)OC(=O)C(C)Oc1ccc(C(=O)NCCc2ccccc2)cc1 (stereo not drawn) | 48µg/mL*
57 | CC(NC(=O)COc1ccccc1)C1COc2ccccc2O1 (stereo not drawn) | 3%
58 | C=CCn1c(COc2ccccc2C)nnc1SCC(=O)NCCc1ccccc1 | i
59 | CCOc1ccc(C(=O)NC(=S)Nc2ccc3oc(-c4ccccc4)nc3c2)cc1Br | i
60 | O=C(NNC(=O)c1ccccc1Br)c1ccc(NC(=O)c2ccccc2)cc1 | 8%

Going on with the list:
entry | Molecule | Mtb growth
61 | CNc1nc(Nc2cccc([N+](=O)[O-])c2)nc(OCC(F)(F)F)n1 | 0%
62 | CCOc1cc(CNCCO)cc(Br)c1OCC(=O)NC1CCCCC1 | i
63 | Cc1ccc(S(=O)(=O)N(CC(=O)Nc2ccccc2Br)Cc2cccc(C)c2)cc1 | 6%
64 | CCc1ccc(NC(=O)CC2CCCCC2)cc1 | i
65 | CC(C)N1C(=O)C2C3C=CC(O3)C2C1=O (stereo not drawn) | i
66 | Cc1cc(C(=O)N2CCN(c3ncccn3)CC2)cs1 | i
67 | O=C(N/C(=C\c1ccc(-c2ccc(F)cc2)o1)C(=O)N1CCOCC1)c1ccccc1 | i
68 | Cc1cc(C)c(S(=O)(=O)Nc2ccccc2C(N)=O)c(C)c1 | i
69 | COCc1nnc(SCC(=O)Nc2cccc(Cl)c2C)n1-c1ccccc1 | i
70 | CCOC(=O)CCc1c(C)c2ccc(OCC(=O)c3ccc(OC)cc3)c(C)c2oc1=O | 0%
71 | Cc1onc(-c2c(Cl)cccc2Cl)c1C(=O)NCCCN1CCOCC1 | i
72 | COc1ccc(C2=NN(c3ccccc3Cl)C(c3ccccc3F)C2)cc1 (stereo not drawn) | i
73 | O=C1NC(=O)C2C3C=CC(C3=C(c3ccccc3)c3ccccc3)C12 (stereo not drawn) | i
74 | N#CSC(C#N)Cc1cccc(Cl)c1 (stereo not drawn) | 7%
75 | S=C(NCCN1CCCCC1)Nc1ccc(Br)cc1 | i
76 | O=C(CNCCc1ccccc1)Nc1sc2c(c1C(=O)Nc1ccc(Br)cc1)CCC2 | i
77 | CC(O)CNc1ncnc2sc3c(c12)CCC3 (stereo not drawn) | i
78 | CCOC(=O)C1CCN(C(=O)C(C)Oc2ccc(OC)cc2)CC1 (stereo not drawn) | i
79 | S=C(NCc1cccs1)NC1CCCC1 | i
80 | CCn1c(CNC(=O)c2cccc([N+](=O)[O-])c2)nnc1SCC(=O)Nc1cc(C)ccc1C | i
81 | COc1ccc(S(=O)(=O)Nc2cccc(-c3cn4cccnc4n3)c2)cc1C | 6%
82 | CCOc1ccc2nc(SCCNS(=O)(=O)c3ccccc3)sc2c1 | 12%
83 | COCCNC(=O)C(C)N(c1ccc(Oc2ccccc2)cc1)S(C)(=O)=O (stereo not drawn) | i
84 | O=C(NCc1cccc(Cl)c1)c1ccc(COc2c(F)c(F)cc(F)c2F)cc1 | i
85 | Cc1nc(SCC(=O)Nc2ccc(S(N)(=O)=O)cc2)n[nH]1 | i
86 | Cc1ccc(C(=O)N2CCN(c3ccc(NC(=O)c4ccc(F)cc4)cc3)CC2)cc1 | i
87 | CNC(=O)CN(C)S(=O)(=O)c1ccc(OC)c(OC)c1 | i
88 | O=C(Cn1c(=O)oc2ccccc21)Nc1ccc2c(c1)OCCO2 | i
89 | COc1ccc(C(=O)NCc2nnc(SCC(=O)Nc3ccc([N+](=O)[O-])cc3)n2-c2ccccc2)cc1 | i
90 | COc1cc(OC)cc(C(=O)NC(C(C)C)C(C)C)c1 | i

Compounds above with a thiophene ring, fused or not (ten):
entry | Molecule | Mtb growth
2 | CCOc1ccccc1NC(=O)c1c(NC(=O)C(F)(F)F)sc2c1CCCCC2 | 0%
31 | COc1ccc(-c2csc3ncnc(SCc4c(C)noc4C)c23)cc1 | i
44 | Cc1nn(S(=O)(=O)c2cccs2)c(C)c1Sc1ccccc1 | i
49 | CCOC(=O)c1c(-c2ccccc2)csc1NC(=O)C(C)Oc1ccccc1 (stereo not drawn) | 1%
51 | Cc1ccn2c(NC(=O)c3ccccc3)c(-c3cccs3)nc2c1 | i
53 | O=C(Cc1cccs1)Nc1ccc(Br)cc1Cl | i
66 | Cc1cc(C(=O)N2CCN(c3ncccn3)CC2)cs1 | i
76 | O=C(CNCCc1ccccc1)Nc1sc2c(c1C(=O)Nc1ccc(Br)cc1)CCC2 | i
77 | CC(O)CNc1ncnc2sc3c(c12)CCC3 (stereo not drawn) | i
79 | S=C(NCc1cccs1)NC1CCCC1 | i

Following part.
entry | Molecule | Mtb growth
91 | CCOc1cc2oc(C)c(-c3ccc(OC)cc3)c(=O)c2cc1CC | 2%
92 | COC(=O)c1ccc(C(=O)OC)c(NC(=O)c2ccc(Br)o2)c1 | i
93 | Cc1cccc(C)c1NC(=O)COc1ccc2c3c(c(=O)oc2c1C)CCC3 | i
94 | O=C(CSCc1ccc([N+](=O)[O-])cc1)Nc1ccccc1C(F)(F)F | i
95 | CCOC(=O)N1CCN(C(=O)CN(c2cccc(Cl)c2)S(=O)(=O)c2ccc(OC)cc2)CC1 | i
96 | CCCOc1ccc(C2C(C(=O)c3ccc(C)o3)=C(O)C(=O)N2Cc2cccnc2)cc1 (stereo not drawn) | i
97 | CNC(=O)C1=C(C)NC(=S)NC1c1ccc(OCC(C)C)c2ccccc12 (stereo not drawn) | i
98 | COc1ccc(-c2cccc(C(=O)NCC(=O)O)c2)cc1 | i
99 | CCCC(=O)Nc1nc2ccc(NC(=S)NC(=O)c3ccco3)cc2s1 | i
100 | Cc1cc(Cl)ccc1OCCCC(=O)NC12CC3CC(CC(C3)C1)C2 | 44%
101 | O=C(NC(=S)NCC1CCCO1)c1ccccc1F (stereo not drawn) | i
102 | CC1=CC(C)(C)N(C(=O)c2ccco2)c2ccc(OC(=O)c3ccco3)cc21 | 1%
103 | COc1ccccc1N1CCN(C(=O)c2cc3cc(Br)ccc3oc2=O)CC1 | i
104 | Cc1ccc2oc(C(=O)Nc3sc4c(c3C(N)=O)CCCC4)c(C)c2c1 | i
105 | S=C(NC1CCCC1)N1CCN(Cc2ccccc2)CC1 | i
106 | Cc1cc(OCC(=O)O/N=C(\N)c2ccc(Br)cc2)ccc1Cl | i
107 | CCOC(=O)c1sc(N2C(=O)c3oc4ccccc4c(=O)c3C2c2ccc(C)o2)nc1C (stereo not drawn) | i
108 | O=C(COc1cccc2ccccc12)Nc1cc(Cl)ccc1C(=O)O | 25%
109 | FC(F)(F)c1cccc(OCCCSc2ncccn2)c1 | 4%
110 | O=C1CC(=O)N(c2ccc3c(c2)OCO3)C(=O)N1 | i
111 | Cc1cc(Cl)c(S(=O)(=O)NCC2CCCO2)cc1OCC(=O)NC1CCCCC1 (stereo not drawn) | i
112 | COc1ccc(Cl)cc1C(=O)NC(=S)Nc1ccc2c(c1)C(=O)N(C)C2=O | i
113 | COc1ccc(NC(=O)CCc2ccc(S(=O)(=O)NCCc3ccccc3)cc2)cc1Cl | i
114 | COc1cccc(OC(=O)c2cc(-c3ccccc3)nc3ccccc23)c1 | i
115 | Fc1ccc(CSc2ncc(-c3ccccc3)nn2)cc1 | 1%
116 | Cc1cc(C)nc(NC2=NCCN2C(=S)Nc2ccccc2)n1 | i
117 | Cc1ccc(-n2c(SCC(=O)Nc3cccc(C)c3C)nnc2-c2ccncc2)cc1C | i
118 | CCc1cccc(C)c1NC(=O)CSc1nnc(CSCc2ccccc2)n1C | i
119 | O=S(=O)(/N=C(\Nc1cccc(C(F)(F)F)c1)c1ccccc1)c1ccccc1 | i
120 | Cc1ccccc1NC(=O)NNC(=O)OC(C)(C)C | i
121 | Cc1cc(Cl)c(S(=O)(=O)Nc2ccccn2)cc1OCC(N)=O | i
122 | O=C1C(=O)N(Cc2ccc(F)cc2)c2ccc([N+](=O)[O-])cc21 | i
123 | OCC1CCCN(C(=S)NC2CCCC2)C1 (stereo not drawn) | i
124 | COc1cc(C(=S)N2CCCC2)ccc1OCc1ccc(Cl)cc1 | 0%
125 | CCOC(=O)Cc1csc(NS(=O)(=O)c2c(C)cc(C)cc2C)n1 | 0%
126 | C(=C\c1ccccc1)/CSc1nc2ccccc2o1 | i
127 | CN(CC(O)COCc1ccc2c(c1)OCO2)C1CCCCC1 (stereo not drawn) | i
128 | O=C(c1ccc(Br)o1)N1CCC(Cc2ccccc2)CC1 | i
129 | N#CCCCSc1nnnn1-c1cccc(Cl)c1 | 1%
130 | CSc1ccccc1C(=O)Nc1ccc2c(c1)OC1(CCCCC1)O2 | 7%
131 | CCOC(=O)C1CCN(S(=O)(=O)Cc2ccc(Cl)cc2)CC1 | 4%
132 | CCCc1cc(C(=O)Nc2nnc(C)s2)cs1 | 7%
133 | COc1ccc(CCNS(=O)(=O)c2ccc(OC)c(Cl)c2Cl)cc1OC | i
134 | CCOC(=O)C(C)Oc1ccc(C#N)cc1OCC (stereo not drawn) | 8%
135 | CC(=O)Oc1cccc(C(=O)Nc2ccc(-c3nnc(-c4ccco4)o3)cc2)c1 | i
136 | Cc1ccc(S(=O)(=O)N(CC(=O)N2CCc3ccccc3C2)Cc2ccccc2Cl)cc1 | 2%
137 | COCCCNC(=O)c1cccc(OC)c1OC | i
138 | CC(=O)Nc1ccc(NC(=O)COc2ccccc2C(=O)Nc2cccc(C)c2C)cc1 | i
139 | CC1CCN(C(=O)C23CC4CC(C)(CC(C)(C4)C2)C3)CC1 | 2%

Source: PubChem BioAssay (Southern Research Institute)
